Sa ugtP lethal: growth inhibition of S. aureus ugtP deletion strain | S. aureus RN4220 ugtP deletion, OD600 growth, 16 h; some inactives read as strong as hits | growth inhibition, % (concentration not given with the values) | 330,000 compounds, 0.54% hits;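 active = z-score under -3 and OD600 up to 0.15 on both plates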;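 also: plate controls were untreated wells for no effect and antibiotic for full effect; wells of about 80 µL received 100 nL stock; the first replicate is given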
Mtb hypoxia inh: inhibitors of hypoxia-regulated fluorescent reporter in Mycobacterium tuberculosis. AID 1159583. M. tuberculosis hypoxia-regulated fluorescent reporter, fluorescence. 300,000 compounds, 0.1% hits. fluorescence inhibition, % (test concentration not listed);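 active = 35 to 45% if threefold the growth effect, above 45% if 1.5-fold the growth effect; inactive = the rest, general growth blockers included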;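 also: wells of about 50 µL received 100 nL stock; 0% = vehicle wells and 100% = reference inhibitor wells; whole bacteria with a GFP reporter of the hypoxia response; strong numbers were not always called active; many hits fall short of the cut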
Bead autofluor: compound fluorescence in toxin protease inhibitor counterscreen; compound autofluorescence counterscreen, microsphere flow cytometry; hits give high values; fluorescence intensity (concentration not given with the values); 360,000 compounds, 3.1% hits;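 active = at least 3 SD above the mean of all compounds, about 16000 in these data; inconclusive = too few beads counted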;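 also: 100 nL of 1 mM stock went into each well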
RN4220 kill: S. aureus RN4220 growth inhibition; 330,000 compounds, 0.33% hits; AID 1259311; OD600, 16 h; inhibition, % (no concentration beside the values);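 active = z-score of -3 or lower and OD600 up to 0.18 on both plates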;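 also: plate controls were untreated cells for no effect and reference antibiotic for full effect; stock transfer was 100 nL into about 80 µL; one replicate is shown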
PrP 5UTR inh: inhibition of PrP 5' UTR reporter expression; cell-based PrP 5' UTR mRNA reporter, plate reader; 340,000 compounds, 0.35% hits; inhibition, % (test concentration not listed); AID 488862;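 active = every replicate at 50% or more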;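 also: 0 = median of the neutral control wells; tested in H4 reporter cells; numbers are from one replicate; inactives centre near -14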
BJeLR lethal: kills HRASV12-expressing BJeLR cells | BJeLR (HRASV12) viability, CellTiter-Glo ATP luminescence, 48 h; reference of the scale not given here | inhibition, % (concentration not given with the values) | 300,000 compounds, 0.17% hits | AID 1554;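 active = replicate mean above 50%; inconclusive = above 50% but judged a plate artefact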;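 also: 50 nL library stock added to about 25 µL; numbers are from one replicate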
Mtb hypoxia inh growth: second read-out of Mtb hypoxia inh, no call of its own (marks repeat the call); growth inhibition, %; measured here: M. tuberculosis growth (absorbance);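 0% = vehicle and 100% = reference antibiotic; read after six days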
Numbers without * were called inactive; ? = inconclusive; . = no result given; & = joins results of further samples. No enrichment for hits (roughly 4% active in at least one column).

SMILES	Sa ugtP lethal	Mtb hypoxia inh	Mtb hypoxia inh growth	Bead autofluor	RN4220 kill	PrP 5UTR inh	BJeLR lethal
COCCn1c(SC(C)C(=O)Nc2ccc(N3CCOCC3)cc2)nnc1-c1ccncc1 (stereo unspecified)	5.7	10.5	1.5	?	6.1	-24.1	1.6
COc1ccc2c(c1OC)C(=O)N1C2SC[C@H]1C(=O)NC1CC(C)(C)NC(C)(C)C1 (stereo partly specified)	-1.7	.	.	5206	0.7	-9.4&-9.7	.
O=C(c1ccccc1)N1CCN(c2ccc(N3CCOCC3)nn2)CC1	1.9	3.5	0.0	?	-0.6	-8.1	5.2
O=C(CSc1nc2ccccc2[nH]1)NN=Cc1ccncc1	3.0	9.1	0.2	.	-1.4	.	.
CCn1ncc(Br)c1C(=O)Nc1ccccc1C(F)(F)F	-1.7	2.2	5.1	3901	4.9	.	7.0
CC(=NNC(=O)Nc1ccccc1)c1ccccc1	-3.3	0.3	-1.7	.	3.3	.	.
Cc1ccc(C(=O)N2CCN(c3ccccn3)CC2)cc1	-0.5	1.9	3.4	3912	-3.9	-7.8	3.0
O=C(COc1ncnc2ccccc12)NCCc1ccccc1	12.5	8.0	5.9	3768	-0.2	-17.6	-18.9
COc1ccc(Cl)cc1-n1c(N)c(C(N)=O)sc1=S	7.9	1.2	5.6	16080	2.5	-17.6	-6.7
CCOCC(=O)Nc1nnc(C2CCCCC2)s1	6.0	.	.	3697	1.3	-33.3	6.8
COc1cc(Cl)ccc1OCc1cc(C(=O)N2CCN(c3ccccn3)CC2)no1	-8.9	7.6	5.2	5991	3.7	-2.8	12.0
Brc1ccc(-c2nc(-c3ccccn3)no2)o1	2.2	-5.0	2.4	3389	15.3	20.3	12.4
COCCCNC(=O)c1cc(C(=O)c2ccccc2Br)c[nH]1	-4.2	-3.1	-3.3	4226	-0.8	-12.8	-0.5
COC(=O)C1=C(NC(=O)c2cccc(OC)c2)CCS1	9.3	5.1	4.1	22750*	9.1	-27.4	1.2
O=C(Oc1ccc2c(c1)OCO2)C12CC3CC(CC(C3)C1)C2	28.9	8.5	-6.4	2527	7.2	-24.0	-4.7
COc1ccc(CCNC(=O)COc2nncc3ccccc23)cc1	-0.9	-0.8	5.5	4249	-1.8	-22.6	-5.7
COc1ccc(-c2nc3n(c(=O)c2C#N)CCS3)c(OC)c1	6.4	-4.6	1.8	3622	3.2	-3.8	7.9
COc1ccccc1NC(=O)CSCC(=O)N1c2ccccc2CCc2ccccc21	3.6	5.8	1.5	2567	1.0	-9.0	-2.0
COc1ccc2cc(C(=O)C3CCCN(C(=O)C4=NN(C)C(=O)CC4)C3)ccc2c1 (stereo unspecified)	-1.4	9.2	-1.3	5417	5.7	-7.8	-9.8
COc1cc2c(cc1OC)CN(CCC(=O)c1ccc(Br)cc1)CC2	8.7	7.7	3.3	3256	12.5	-48.2	-10.6
CC(=O)Nc1ccc(NC(=O)CSc2nnc(-c3ccco3)o2)cc1	6.0	-3.5	-3.9	4248	7.2	-21.3	4.1
Cn1c(SCC=Cc2ccccc2)nnc1-c1ccco1	7.9	6.6	4.0	.	5.1	.	.
CCCC(C(=O)NCCC(C)C)N(Cc1ccc(OC)cc1)C(=O)c1snc(C(N)=O)c1N (stereo unspecified)	6.7	-2.4	10.9	4563	2.3	-14.6	-9.9
O=C(COC(=O)Cc1ccccc1[N+](=O)[O-])NCc1ccccc1Cl	3.7	-3.8	-8.8	2526	1.8	-11.6	-7.3

Reprinted at random: 6 entries already listed, in no set order.
SMILES	Sa ugtP lethal	Mtb hypoxia inh	Mtb hypoxia inh growth	Bead autofluor	RN4220 kill	PrP 5UTR inh	BJeLR lethal
COc1ccccc1NC(=O)CSCC(=O)N1c2ccccc2CCc2ccccc21	3.6	5.8	1.5	2567	1.0	-9.0	-2.0
CC(=O)Nc1ccc(NC(=O)CSc2nnc(-c3ccco3)o2)cc1	6.0	-3.5	-3.9	4248	7.2	-21.3	4.1
COc1ccc(-c2nc3n(c(=O)c2C#N)CCS3)c(OC)c1	6.4	-4.6	1.8	3622	3.2	-3.8	7.9
Cn1c(SCC=Cc2ccccc2)nnc1-c1ccco1	7.9	6.6	4.0	.	5.1	.	.
COc1cc2c(cc1OC)CN(CCC(=O)c1ccc(Br)cc1)CC2	8.7	7.7	3.3	3256	12.5	-48.2	-10.6
COCCCNC(=O)c1cc(C(=O)c2ccccc2Br)c[nH]1	-4.2	-3.1	-3.3	4226	-0.8	-12.8	-0.5

The list continues:
SMILES	Sa ugtP lethal	Mtb hypoxia inh	Mtb hypoxia inh growth	Bead autofluor	RN4220 kill	PrP 5UTR inh	BJeLR lethal
CC(=O)N1CCN(C(=S)c2ccc([N+](=O)[O-])cc2)CC1	12.3	.	.	4744	5.6	-2.9	-12.5
COC(=O)/C=C/C(=O)NCc1ccco1	.	.	.	2457	.	-9.0	1.4
NNC(=O)C1CC(O)CN1S(=O)(=O)c1ccc(Cl)cc1 (stereo unspecified)	.	.	.	4380	.	-30.7	-1.6
Cc1ccc(CN2CCN(CC(=O)NCCCN3CCN(c4ccc(F)cc4)CC3)C2=O)cc1	7.8	12.8	19.4	11331	3.9	-10.2	6.2
CC1(C)CC(=O)C=C(CN2C(=O)c3ccccc3C2=O)C1=O	2.3	4.0	11.6	3710	1.4	-22.7	.
CC1(C)N=C(N)NC(Nc2ccc(Br)cc2)=N1	-8.5	-4.8	9.5	23628*	-1.2	-12.9	-0.2
Cc1cc(C(=O)COC(=O)CC2Sc3ccccc3NC2=O)c(C)n1-c1ccc(Br)cc1 (stereo unspecified)	-6.6	3.0	-3.5	2069	-5.3	-6.8	-0.5
CCOP(=O)(OCC)C1(C(=O)O)CCCC1	12.2	11.4	9.5	3205	6.4	-17.1	-2.9
CCN(CC(=O)Nc1ccc(S(N)(=O)=O)cc1)S(=O)(=O)c1cc(C)ccc1OC	8.5	.	.	4346	2.1	-15.0	2.7
CC1(C)CC(=O)C(CCC(=O)c2ccccc2)C(C)(C)N1 (stereo unspecified)	-7.3	3.1	13.4	15569	-0.5	-1.8	10.8
CC(=O)n1cc([C@H]2C=C(C(=O)NCc3ccccc3)O[C@@H](OCc3ccc(CO)cc3)C2)c2ccccc21	.	.	.	4160	.	-18.6	1.8
Cc1ccc(S(=O)(=O)N=S(CCO)CCO)cc1	1.0	-0.1	1.4	1858	1.8	8.2	4.4
Cc1cc(NC(=O)c2cccc(COc3ccc(Br)cc3)c2)no1	-6.1	-5.6	6.6	5145	6.0	-77.6	-0.8
Cc1nc(Nc2ccc(S(=O)(=O)N3CCCC3)cc2)c2nnn(Cc3ccccc3)c2n1	6.5	11.2	-0.8	2011	2.5	12.2	14.0
Cc1cccc(Nc2nc(N)c([N+](=O)[O-])c(N3CCCC(C)C3)n2)c1 (stereo unspecified)	17.1	13.2	7.5	2153	7.5	-17.7	13.9
COc1ccc(CCN2CC(C(=O)NCc3ccco3)CC2=O)cc1OC (stereo unspecified)	-1.2	2.5	3.9	16739*	4.4	1.0	-3.3
O=C1NC2(CCCC2)Oc2ccccc21	6.2	0.2	6.4	5296	7.8	-22.9	-0.5
O=C(CN1C(=O)CC(c2ccccc2)Sc2ccccc21)NCC1CCCO1 (stereo unspecified)	-1.0	7.0	-4.6	2088	0.9	-24.6	-4.9
CCCCCCCN1C(Nc2ccccc2)=NC[C@@H]1CC(C)C	.	.	.	2926	.	-12.8	-8.8
CC(=O)c1cccc(CN2CCC(C(=O)Nc3cccc(-c4ccn[nH]4)c3)CC2)c1	8.7	2.6	-1.1	4831	3.8	2.5	-11.3
CCN1CCN(CC(O)COCCOc2ccc(Br)cc2)CC1 (stereo unspecified)	10.9	5.2	7.1	2123	5.0	-8.2	4.9
O=C(c1cccnc1)C1CCCN(Cc2nc(Cc3ccccc3)no2)C1 (stereo unspecified)	5.3	-12.5	2.0	3570	-3.9	-10.7	-1.5
COc1ccc(NC(=O)COc2ccccc2Cc2ccccc2)cc1S(N)(=O)=O	-4.1	4.6	7.2	6171	-1.8	-24.2	6.3
CCCCN(C(=O)Nc1ccc(OCC)cc1)C1CCN(C(C)=O)CC1	2.3	4.0	11.3	10787	-1.0	-13.6	-3.4
O=C(CN(c1ccccc1)S(=O)(=O)c1ccccc1)Nc1ccc(F)cc1	-8.2	-15.5	-3.0	3726	-1.3	-19.8	19.5
Cc1ccc(S(=O)(=O)/C(C#N)=C/c2c(N3CC(C)OC(C)C3)nc3ccccn3c2=O)cc1 (stereo unspecified)	10.0	6.9	3.4	.	4.1	-23.6	-6.7
O=S(=O)(Nc1ncccn1)c1ccc(NC(=S)NCc2cccnc2)cc1	8.2	10.2	2.1	4579	4.5	-7.6	0.5
COc1ccc2oc3ccccc3c(=O)c2c1	10.0	-3.1	-9.4	2890	12.0	-30.5	-5.5
COc1ccc(-c2cc3cc(F)ccc3cn2)cc1	-8.8	6.1	3.6	2913	12.1	-34.1	.
CCC(=O)OCC(=O)Nc1cc(C)c(C)cc1[N+](=O)[O-]	0.9	1.4	7.6	2734	1.9	-21.2	-3.9
Cc1ccc(-c2nnn(CC(=O)N(c3cnc4ccccc4c3)C(C(=O)NC3CCCC3)c3ccncc3)n2)o1 (stereo unspecified)	1.9	12.4	8.5	3859	8.5	-15.0	-0.4
CC(C)CC(Nc1ncnc2scc(-c3ccccc3)c12)C(=O)O (stereo unspecified)	-5.7	4.1	11.4	4436	16.8	-9.1	-1.7
CCOC(=O)N1CCN(S(=O)(=O)N2CCCC(C(=O)NCc3cccc(OC)c3)C2)CC1 (stereo unspecified)	1.9	8.5	3.4	4336	1.7	-11.3	3.3
CCOC(=O)C1=C(O)/C(=C/c2ccc(CNC(=O)C(=O)Nc3ccc(C)cc3)o2)N=C1C	-8.5	.	.	2651	2.5	-3.1	1.9
COc1ccc(-n2cc(CNCc3cccnc3)c(-c3cccc(F)c3)n2)cc1	24.3	4.6	7.7	4694	2.3	0.6	-18.9
CC(=NNC(=O)Cn1nc2ccccc2n1)c1ccc(F)cc1	-4.2	4.9	-4.9	.	-0.2	.	.
CC(C)(C)c1cc(C(=O)NNC(=O)c2ccc(Cl)cc2)no1	3.2	0.2	4.0	3491	0.4	-13.0	-6.0
COc1cc(CN2CCC(Cc3ccccc3)CC2)cc(OC)c1OC	9.7	-3.9	2.0	4131	1.4	-18.3	4.2
O=C(NCC1(c2ccccc2)CCCC1)c1ccc(Br)cc1	-3.2	16.0	9.6	1818	1.3	-15.6	9.1
CCCNC(=O)c1ccc(N2CCC3(CC2)CC(c2cccc(Br)c2)=NO3)c(NC(=O)c2ccc(Cl)c([N+](=O)[O-])c2)c1	-1.1	14.0	7.7	4036	3.8	-18.1	9.8
Cc1ccc(/C=N\NC(=O)/C(=C\Nc2nccc(C)n2)NC(=O)c2ccccc2)cc1	.	.	.	4290	.	-6.1	-1.3
O=C1CCC(C(=O)N2CCN(c3ccccc3)CC2)CN1CC1CCCCC1 (stereo unspecified)	-0.4	0.4	2.9	5739	-2.7	-9.3	-6.4
Cn1cnnc1SCC(=O)Nc1ccc2nc(SCc3ccccc3)sc2c1	2.6	.	.	4232	-1.9	-99.1	-7.7
C[C@H](CO)N1C[C@H](C)[C@@H](CN(C)C(=O)Nc2ccc3c(c2)OCO3)Oc2c(NC(=O)Nc3ccccc3)cccc2C1=O	4.6	4.8	3.8	3779	3.1	-30.9	.
C/C(=N\OCC(=O)Nc1ccccc1C(C)(C)C)c1ccc2c(c1)OCCO2	.	.	.	1997	.	-15.7	-4.4
O=[N+]([O-])c1cc2c(cc1/C=N/n1c(-c3ccccn3)n[nH]c1=S)OCO2	.	.	.	2362	.	-0.3	13.9
Cn1c(=O)c2ncn(CC(=O)Nc3ccc(N4CCOCC4)cc3)c2n(C)c1=O	4.9	11.6	6.3	9493	4.7	.	-8.1
Cc1cc(C(C)(C)C)ccc1OCCCCN1CCCC1	33.3	8.7	9.3	2696	-3.0	-6.6	-1.5
CC(C)n1c(CN2CCN(C)CC2)nc2c1c(=O)n(C)c(=O)n2C	-3.0	2.5	4.8	3804	3.4	-19.7	-11.0
COc1ccc(C(=O)Nc2nc(CC(=O)NCc3ccc(F)cc3)cs2)cc1	-0.6	7.6	2.9	6500	4.6	-39.4	-2.9
Cc1cccn2c(=O)c3cc(C(=O)N4COCC4(C)C)n(Cc4ccccc4)c3nc12	7.2	-9.9	4.3	4538	0.1	-23.3	0.4
